Bioassay records deposited in PubChem by National Center for Advancing Translational Sciences (NCATS).
VDR inhibitor = vitamin D3 receptor (human) inhibition; AID 504847; actives 0.93% (n = 400,000); Potency, µM, for the others: max response, negative = inhibition, hits mostly inhibitors; VDR-SRC2-3 peptide fluorescence polarization, 2 h; active = well fitted inhibition curve with a large enough effect; inconclusive = small, poorly fitted or top-dose-only effect, or another doubt; inactive = no such curve, though single readings can be large or run the other way; note: series mostly up to about 120 µM
Target sequence (P11473 whole entry, looked up): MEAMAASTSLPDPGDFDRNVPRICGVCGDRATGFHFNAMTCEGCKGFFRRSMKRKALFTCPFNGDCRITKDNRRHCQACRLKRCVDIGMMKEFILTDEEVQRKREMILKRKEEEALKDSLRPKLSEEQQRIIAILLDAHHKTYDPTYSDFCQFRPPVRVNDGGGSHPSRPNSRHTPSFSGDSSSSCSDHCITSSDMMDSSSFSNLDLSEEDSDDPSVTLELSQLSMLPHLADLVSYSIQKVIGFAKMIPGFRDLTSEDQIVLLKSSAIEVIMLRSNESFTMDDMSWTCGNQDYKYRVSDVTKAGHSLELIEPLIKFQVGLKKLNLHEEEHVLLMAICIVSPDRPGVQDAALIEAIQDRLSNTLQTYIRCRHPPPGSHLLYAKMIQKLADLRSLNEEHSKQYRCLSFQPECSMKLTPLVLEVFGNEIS
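FP read-out; VDR + SRC2-3 coactivator peptide; 23 nl compound by pintool; 2 h RT incubation; reagents held at 4 deg C, protected from light.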
* = called active by the depositor; u = inconclusive; & = joins results of further samples; [ ] = another dose, or the depositor's remark. % is set by controls: 0 for no effect and ±100 for the full control effect; potency is the fitted concentration of half-maximal effect. These rows are one share of the data; count on the stated rates, not on these rows.

SMILES	VDR inhibitor
CS(=O)(=O)c1nc(S(=O)(=O)c2ccc(Cl)cc2)c(N2CCN(CCO)CC2)s1	4%
COc1ccc(C2=Nn3c(nnc3-c3ccccc3F)SC2)cc1OC1CCOC1 (configuration not stated)	8%
CC1=C(C)CC(C(=O)Nc2nc(-c3ccc(C)cc3C)c(C)s2)C(C(=O)O)C1 (configuration not stated)	-16%
CCOc1ccc(OCCOCCN2CCc3ccccc3C2)cc1	-11%
C=COCCNC(=O)Nc1ccc(Cl)cc1Cl	1%
Cn1c(=O)n(CC#N)c2ccccc21	7%
O=C(NC1CCCC1)c1ccc2c(c1)N(Cc1c(F)cccc1Cl)C(=O)c1ccccc1S2	-10%
O=C(Nc1ccccc1C(=O)OC1CCOC1=O)c1ccco1 (configuration not stated)	5%
COc1ccc(C2c3cccn3CCN2S(=O)(=O)c2ccccc2[N+](=O)[O-])cc1OC (configuration not stated)	-2%
Cc1csc(N2CCN(c3cc4nc(-c5ccncc5)[nH]c4cc3Cl)CC2)n1	-26%
O=C(O)c1cccc(C(=O)c2cccc3ccccc23)c1	-2%
CCc1ccc(Cn2c(CNS(=O)(=O)c3ccc(C)c(C)c3)nc3cccnc32)cc1	-3%
COc1ccc(CNc2cccc(F)c2)cc1Br	-13%
Cc1csc(NC(=O)c2ccccc2O)n1	-1%
C[C@@H]1C=C(C(=O)N2CCN(Cc3ccccc3)CC2)O[C@H](OCc2ccc(CO)cc2)C1	4%
CCc1nnc(NC(=O)CCC(=O)N2CCN(c3cc(C)ccc3C)CC2)s1	4%
CCOc1ncccc1C(=O)NNC(=O)c1cccc(S(=O)(=O)N2CCOCC2)c1	2%
Cc1cccc(C)c1N1CCN(c2ccc3nnc(C(F)(F)F)n3n2)CC1	-7%
CC1CCCCN1CC(=O)NCc1ccc2c(c1)OCO2 (configuration not stated)	-4%
O=C(N/C(=C\c1cccc([N+](=O)[O-])c1)C(=O)N(CCO)CCO)c1ccco1	8%
O=C(NCCN1CCOCC1)Nc1ccc(Cl)cc1Cl	1%
COc1ccc(N2C(=O)CC(C#N)=C2N)cc1	-14%
Oc1c(C(c2ccccn2)N2CCC(Cc3ccccc3)CC2)cc(Cl)c2cccnc12 (configuration not stated)	u
Cc1ccc(NC(=O)C2C3/C=C\CCCCC32)cc1C (configuration not stated)	-16%

Sorted by value in VDR inhibitor (descending): 3 of the compounds above
SMILES	VDR inhibitor
O=C(N/C(=C\c1cccc([N+](=O)[O-])c1)C(=O)N(CCO)CCO)c1ccco1	8%
COc1ccc(N2C(=O)CC(C#N)=C2N)cc1	-14%
Cc1ccc(NC(=O)C2C3/C=C\CCCCC32)cc1C (configuration not stated)	-16%

Remaining list, next part
SMILES	VDR inhibitor
CN1CCC(N(C)C(=S)Nc2ccc(F)cc2)CC1	-15%
O=C(CCCn1c(=O)[nH]c2ccsc2c1=O)NC1CCCCC1	-11%
CCOc1ccc(NC(=O)Cn2nnc(-c3ccccc3NC(=O)C3CC3)n2)cc1	3%
CSc1ccc(Cl)c(C(=O)NCCOc2cc(C)ccc2C(C)C)c1	-4%
Cc1cccc(N2CCN(C(=O)C3CCN(S(=O)(=O)c4cccs4)CC3)CC2)c1C	-6%
COc1ccccc1-c1nc(S(=O)(=O)c2ccccc2)c(N2CCOCC2)o1	-11%
Cc1c(Cl)cccc1NC(=O)Nc1cc(C(C)(C)C)nn1C	4%
COC(=O)c1nn(-c2ccccc2)nc1-c1nn(-c2ccccc2)nc1C(=O)OC	-2%
Cc1ccc(NC(=O)CSc2nnc(Cc3ccccc3)o2)c(C)c1	-6%
CC(C)CN(C(=O)CCCSc1nc2ccccc2[nH]1)c1c(N)n(Cc2ccccc2)c(=O)[nH]c1=O	-11%
CN(C)C(=S)N=c1ssc(=S)n1Cc1ccccc1	40µM*
CC(C)[C@@H](N)C(=O)O	8%

Next part (3 carried over from the part before).
SMILES	VDR inhibitor
CC(C)CN(C(=O)CCCSc1nc2ccccc2[nH]1)c1c(N)n(Cc2ccccc2)c(=O)[nH]c1=O	-11%
CN(C)C(=S)N=c1ssc(=S)n1Cc1ccccc1	40µM*
CC(C)[C@@H](N)C(=O)O	8%
Cc1cc(C(=O)CN2C(=O)C(=O)N(Cc3ccco3)C2=O)c(C)n1CCc1ccc(F)cc1	55%[activator]
CC12CN3CC(C)(CN(C1)C3c1ccccc1F)C2 (configuration not stated)	-4%
NS(=O)(=O)c1ccc(CCNC(=O)c2cccc([N+](=O)[O-])c2)cc1	13%
N#Cc1c(F)cccc1N1CCC(C#N)CC1	-2%
Cc1ccc(S(=O)(=O)NC(C(=O)N2CCOCCOCCOCC2)C(C)C)cc1 (configuration not stated)	4%
CN1CCN(c2nc(-c3ccc(Br)cc3)nnc2-c2ccccc2)CC1	-17%
O=[N+]([O-])c1c(NCCO)cc(N2CCCCCC2)c2nonc12	1%
O=C(O)c1ccc(S(=O)(=O)Nc2ccc(O)c(Sc3nc4ccccc4s3)c2)cc1	-8%
Cc1ccc2ncnc(Nc3cccc(C(=O)O)c3)c2c1	-2%
C/C(=N\O)C1(C)N(O)C(C)(C)C(c2ccc(F)cc2)=[N+]1[O-] (configuration not stated)	-11%
CC(C)c1ccc(NC(=O)C2CC(=O)N(C3CCCC3)C2)cc1 (configuration not stated)	5%
COC(=O)C(CC(C)C)NC(=O)c1ccc([N+](=O)[O-])cc1 (configuration not stated)	-3%
CCOC(=O)C1=C(COC(=O)c2ccc(OC)c(S(=O)(=O)N3CCOCC3)c2)NC(=O)NC1C (configuration not stated)	-9%
CN(C)S(=O)(=O)c1ccc(N2CCCC2)c(C(=O)Nc2nc(-c3ccc(F)cc3)cs2)c1	14%
Cc1cccc(C(=O)OCC(=O)NCCNC(=O)COC(=O)c2cccc(C)c2C)c1C	-4%
Cc1cc(Cl)c2oc(C(=O)NCC(C)(C)N3CCOCC3)c(C)c2c1	-14%
OC(COc1ccc(Cl)cc1)CSc1ccccn1 (configuration not stated)	-10%
Cc1ccc(Cl)cc1NC(=S)N(Cc1ccco1)C(C)c1cccs1 (configuration not stated)	-11%
Cc1cc(C(=O)Nc2nc(C)c(C(=O)N(C)C)s2)ccc1[N+](=O)[O-]	-10%
CCc1ccc(NC(=O)C(C)OC(=O)c2cccc(S(=O)(=O)N3CCc4ccccc4C3)c2)cc1 (configuration not stated)	-4%
Cc1ccc(-n2[nH]c(C)c(/C=N/c3ccccn3)c2=O)cc1	1%
O=C(N/N=C/c1ccc(Cl)cc1)c1nc2ccc([N+](=O)[O-])cc2c(=O)[nH]1	-28%
Cc1ccccc1Cc1n[nH]c(=S)n1N	-6%
Cc1ccc(C2CC(=O)Oc3cc(C)c(Cl)cc32)cc1 (configuration not stated)	-12%
CN(Cc1cccs1)C(=O)Cn1cnc2cc([N+](=O)[O-])ccc2c1=O	-13%
N=C1S/C(=C\c2ccccc2F)C(=O)N1c1ccc(F)cc1	2%
O=C(NCC(c1cccnc1)N1CCN(c2ccccc2F)CC1)OCc1ccccc1 (configuration not stated)	20%
CCc1ccc(-n2c(=O)c3c4c(sc3n(Cc3cc(=O)n5c(C)cccc5n3)c2=O)CCC4)cc1	-14%
O=C(NC12CC3CC(CC(C3)C1)C2)c1ccc(-c2ccc(Cl)cc2)o1	-9%
CCc1ccc(-c2cc(C)no2)cc1S(=O)(=O)Nc1ccc(Cl)cc1	13%
CC(=O)C1=C(c2ccccc2)NC(=O)NC1c1ccccc1 (configuration not stated)	11%
O=C(COC(=O)C1(c2ccc(Cl)cc2)CCCC1)NCc1ccco1	-14%
COc1ccccc1Oc1ccc(S(=O)(=O)N2CCCCC2)cc1NC(=O)CCNC(C)=O	-8%
Cc1ccc(S(=O)(=O)N2CCN(C(=O)CN3CCc4ccccc4C3)CC2)cc1	7%
COc1cc(/C=C/C(=O)N(Cc2ccccc2)c2ccccn2)cc(OC)c1OC	u
COc1ccc(CC(=O)N2CCC(CCC(=O)Nc3ccccc3)CC2)cc1	5%

Shown as a hit in VDR inhibitor, of those listed so far:
SMILES	VDR inhibitor
CN(C)C(=S)N=c1ssc(=S)n1Cc1ccccc1	40µM*

(list continues)
SMILES	VDR inhibitor
Cc1ccc(S(=O)(=O)c2nc(C)oc2N2CCOCC2)cc1	-17%
O=C(Cc1cccs1)Nc1nnc(SCc2ccc(C(F)(F)F)cc2)s1	7%
COc1ccc(NC(=O)c2nn(C)c3c2CS(=O)(=O)c2ccccc2-3)cc1	-9%
CCOc1ccc(NC(=O)Cn2c(=O)n(Cc3ccccc3)c(=O)c3sc4ccccc4c32)cc1	-7%
O=C(CSc1nc2ccccc2c(=O)n1NC(=O)Cc1ccccc1)NCCc1ccccc1	4%
O=C(O)c1ccc(COc2ccc3ccccc3c2)o1	-14%
COc1ccccc1Oc1nc2c(C)cccn2c(=O)c1/C=C(\C#N)c1nc2ccccc2[nH]1	-11%
COC(=O)c1cc(NC(=O)C2(S(=O)(=O)c3ccc(Cl)cc3)CC2)cc(C(=O)OC)c1	3%
CN(C)C(=O)c1ccc(-c2cncnc2Nc2ccc(F)cc2)cc1	-10%
O=C(COC(=O)/C=C/c1cnc2ccccc2n1)NCC(F)(F)F	-2%
CCOC(=O)COc1cc2oc(=O)cc(C)c2cc1[N+](=O)[O-]	-4%
Cc1cc(C)nc(SCc2nnc(SCC(N)=O)n2Cc2ccco2)n1	2%
O=C(COC(=O)c1cc(-c2cccc3ccccc23)nc2ccccc12)NC1CCS(=O)(=O)C1 (configuration not stated)	-23%
O=Cc1cccc(OC(=O)/C=C/c2ccco2)c1	-22%
Cc1nc2ccn(Cc3cccs3)c(=O)c2cc1C(=O)N1CCN(c2ccc(F)cc2)CC1	16%
CCOC(=O)COc1ccc(CC)cc1C(=O)c1ccn2nc(-c3ccccc3)cc2n1	4%
Cc1ccccc1Nc1c(-c2cccc(N(C)C)c2)nc2ccc(Br)cn12	-3%
CCOC(=O)CCC(NC(=O)CCCCC(=O)NC(CCC(=O)OCC)C(=O)OCC)C(=O)OCC (configuration not stated)	-5%
CC1CC(C)(C)CC2(C1)NC(=O)N(CC(=O)N1CCN(Cc3ccc(C#N)cc3)CC1)C2=O (configuration not stated)	5%
CN(C)CCNC(=O)C(=O)NCC(c1ccc2c(c1)OCO2)N1CCN(c2ccc(F)cc2)CC1 (configuration not stated)	-4%
C=CCNC(=S)NNC(=O)c1csc(C)c1C	2%
Cc1cc(NC(=O)c2cc(F)c(F)cc2Cl)no1	-13%
Cc1cccc2sc(N(CCCN(C)C)C(=O)COc3ccc(Cl)cc3)nc12	0%
CCc1cccc(CC)c1NC(=O)c1cccc(NC(=O)c2ccccc2)c1	6%
O=C(CSc1nnc(Cc2cc(=O)[nH]c(=O)[nH]2)n1-c1ccccc1)N1CCCC1	13%
O=C(Nc1ccncc1)c1ccc(Cl)c(Cl)c1	11%
C[C@@H]1CN([C@@H](C)CO)C(=O)Cc2cc(NS(=O)(=O)c3cn(C)cn3)ccc2O[C@@H]1CN(C)C(=O)Nc1ccccc1	u
C1=CC2=NC34CCCCC3CC3=C(CCCC3)N4C2=CC1=NC1CCCCC1 (configuration not stated)	24%
O=C(c1ccco1)N1CCN(S(=O)(=O)c2ccc3c(c2)CCN3C(=O)C2CC2)CC1	-18%
O=C(O)/C=C\c1ccccc1Oc1ccc(F)cc1	25%
CCN(Cc1ccccc1)c1ccc(/C=N/NS(=O)(=O)c2ccc(C)c([N+](=O)[O-])c2)cc1	u
Cc1ccc(S(=O)(=O)N(C)C)cc1NC(=O)CN1CCCC1	7%
CN(C)NC(=O)c1cccc(Cl)c1	-8%
OC(CNCCc1ccc(Cl)cc1Cl)COc1ccccc1 (configuration not stated)	-6%
O=c1c2cccc(Cl)c2nc2n1Cc1ccccc1-2	79µM*
Cc1ccc(C(=O)NCCCN2CCOCC2)c(C)c1	-17%

Copied from the list:
CC12CN3CC(C)(CN(C1)C3c1ccccc1F)C2 (configuration not stated) in VDR inhibitor has -4%
O=C(Cc1cccs1)Nc1nnc(SCc2ccc(C(F)(F)F)cc2)s1 in VDR inhibitor has 7%
CS(=O)(=O)c1nc(S(=O)(=O)c2ccc(Cl)cc2)c(N2CCN(CCO)CC2)s1 in VDR inhibitor has 4%
O=c1c2cccc(Cl)c2nc2n1Cc1ccccc1-2 in VDR inhibitor has 79µM*
OC(CNCCc1ccc(Cl)cc1Cl)COc1ccccc1 (configuration not stated) in VDR inhibitor has -6%
Cc1cc(C(=O)Nc2nc(C)c(C(=O)N(C)C)s2)ccc1[N+](=O)[O-] in VDR inhibitor has -10%

More results
SMILES	VDR inhibitor
COc1cc(C(=O)OCC(=O)c2c[nH]c3ccccc23)ccc1OCC(=O)N1CCOCC1	-1%
CCn1cc(C(=O)O)c(=O)c2cnc(N3CCN(C(=S)Nc4ccccc4Cl)CC3)nc21	5%
C[C@H]1NC(=O)[C@@]2(C)[C@@H](c3ccccc3)[C@H]3COc4ccccc4[C@H]3N2C1=O	-2%
Cc1nn(CCCC(=O)NCCc2ccc(Cl)cc2)c(=O)c2nn(-c3ccccc3)c(C)c12	-4%&-5%
CCCCN(CCCNC(=O)c1cc(Nc2ccc(OC)cc2)nc2ccccc12)Cc1ccccc1	-12%
CC(=O)Nc1ccc(S(=O)(=O)N(C)CC(=O)N2CCN(C(=O)c3ccco3)CC2)cc1	6%
Cc1cc(C)c(C)c(S(=O)(=O)NCc2cccnc2)c1C	2%
Cc1cc2oc(=O)cc(Cn3ccnc3)c2cc1C	-1%
COc1ccc(NCc2cc(=O)oc3cc(NC(C)=O)ccc23)cc1	7%
CCc1ccccc1N(C)C(=O)c1cnc(N2CCOCC2)c2ccccc12	3%
COc1ccc(CC(=O)NC(C)c2nnc(SCc3nc4ccccc4c(=O)[nH]3)n2C)cc1 (configuration not stated)	2%
O=S(N1CCc2ccccc21)C12CC3CC(CC(C3)C1)C2 (configuration not stated)	-4%
COc1ccc(OC)c(Nc2cc(C)c3ccccc3n2)c1	-13%
Cc1ccc(NC(=S)NCc2ccc(S(N)(=O)=O)cc2)c(C)c1	-18%
CCCCc1nc2ccccc2n1CC(=O)N(COCC)c1c(C)cccc1CC	-1%
